# Compound activity deposited in PubChem by Broad Institute.
# AF4-AF9 inh: blocks AF4 peptide binding to human AF9; P42568; AlphaScreen, biotin-AF4 peptide binding to FLAG-AF9; inhibition, % at 10 µM; 350,000 tested, 0.47% active;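 active = every replicate reaching a set inhibition limit, whatever the replicate mean, cut at about 25% in these data; inconclusive = mean inhibition reaches that limit but some replicates miss it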;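 also: 0% = plate neutral control median and 100% = total signal loss; the record names both 10 and 1 µM as test concentration; the first replicate is given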
# Target sequence (P42568 whole entry, looked up): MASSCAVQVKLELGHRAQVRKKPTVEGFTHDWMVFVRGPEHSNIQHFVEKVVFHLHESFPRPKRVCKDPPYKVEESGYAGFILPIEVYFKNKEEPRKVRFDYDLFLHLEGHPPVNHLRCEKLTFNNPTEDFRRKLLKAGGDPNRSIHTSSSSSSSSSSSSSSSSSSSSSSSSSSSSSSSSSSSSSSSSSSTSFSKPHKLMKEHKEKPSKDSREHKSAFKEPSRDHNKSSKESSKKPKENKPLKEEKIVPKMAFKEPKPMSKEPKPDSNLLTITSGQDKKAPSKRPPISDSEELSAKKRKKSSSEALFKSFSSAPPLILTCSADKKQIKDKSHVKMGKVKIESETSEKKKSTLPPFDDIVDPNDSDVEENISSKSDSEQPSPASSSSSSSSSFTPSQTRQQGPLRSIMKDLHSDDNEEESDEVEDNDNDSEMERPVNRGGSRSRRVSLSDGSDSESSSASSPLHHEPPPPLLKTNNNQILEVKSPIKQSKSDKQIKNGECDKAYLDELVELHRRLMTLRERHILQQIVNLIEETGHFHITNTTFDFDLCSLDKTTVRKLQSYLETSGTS
# FGF22 binding: FGF22 (human) thermal shift binding; recombinant FGF22 thermal shift, SYPRO orange fluorescence; percent of sucrose octasulfate shift, DMSO zero; 340,000 tested, 1.5% active; Q9HCT0; AID 651658; calls only at 9.99 µM;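 active = melting point raised past a set limit in the mean and every replicate; inconclusive = no clear call; three in four hits are not shown here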
# Target sequence (Q9HCT0 whole entry, looked up): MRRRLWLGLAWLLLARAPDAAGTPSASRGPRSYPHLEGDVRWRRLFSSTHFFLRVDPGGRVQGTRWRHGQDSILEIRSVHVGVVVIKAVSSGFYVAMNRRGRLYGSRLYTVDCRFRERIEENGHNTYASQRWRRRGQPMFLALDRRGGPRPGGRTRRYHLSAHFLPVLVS
# T cruzi inh: T. cruzi replication inhibition; T. cruzi beta-gal in NIH3T3, luminescence, 90 h; inhibition, % (no concentration beside the values); 300,000 tested, 1.4% active; AID 1885;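 active = mean inhibition across valid replicates above about 55%, limit read from the data; inconclusive = mean below that limit but half or more replicates reach it; inactive = mean below it, under half of replicates reach it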;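 also: signal also drops with host cell toxicity which is not excluded here; 0% = plate median of DMSO wells and 100% = zero luminescence signal; higher percent means less beta-gal luminescence so fewer parasites; stock transfer was 50 nL into about 50 µL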
# Ecoli rRNA inh: inhibits bacterial ribosomal RNA function over humanized ribosomes; GFP signal change (wild-type ribosome), % (concentration not given with the values); 350,000 tested, 1.6% active; E. coli WT GFP vs humanized-ribosome RFP mutants, fluorescence, 24 h; stronger effect = lower value; DMSO median 0, no signal -100;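 active = significant combined selectivity score with lowered wild-type GFP, culture density cut under 30%, mutant RFP and density less affected; inactive = any of these conditions unmet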; also: one replicate is shown; some compounds called inactive have numbers as strong as hits
# ALR H2O2 inh: blocks human ALR sulfhydryl oxidase activity | inhibition, % (concentration not given with the values) | purified ALR, DTT oxidation, H2O2 HRP-luminol luminescence | 290,000 tested, 3.8% active | P55789;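 active = mean and each replicate at 75% or more; inconclusive = only one of the two met; inactive = neither met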;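 also: stock transfer was 7.5 nL into about 7.5 µL; 0% = neutral wells and 100% = wells with inactivated enzyme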
# Target sequence (P55789 whole entry, looked up): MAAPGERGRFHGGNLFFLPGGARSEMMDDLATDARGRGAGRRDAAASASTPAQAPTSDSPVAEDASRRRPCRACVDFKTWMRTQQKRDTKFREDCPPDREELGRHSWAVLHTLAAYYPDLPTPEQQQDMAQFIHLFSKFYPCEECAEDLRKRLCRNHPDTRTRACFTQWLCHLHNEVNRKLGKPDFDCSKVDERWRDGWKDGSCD
# Beta cell apopt: blocks beta cell apoptosis; 300,000 tested, 0.8% active; INS-1E cytokine-induced death, ATP luminescence, 48 h; percent of positive-control rescue, neutral wells zero; protection from apoptosis, % (test concentration not listed); AID 435005;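 active = all replicates at 75% or more, or half of them and the mean; inconclusive = half reach 75% but not the mean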;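 also: 0% = cytokine-treated negative control wells and 100% = positive control rescue; higher means more ATP so stronger rescue from cytokine killing; wells of about 40 µL received 100 nL stock; the first replicate is given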
# RanGTP-Impb inh: disruptors of Ran-importin-beta complex formation – biochemical, FRET, CFP-Ran, YFP-importin-beta, homogeneous, primary screen; AID 2216; inhibition, % (test concentration not listed); cell-free CFP-Ran/YFP-importin-beta FRET ratio; 300,000 tested, 1.1% active;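 active = most replicates above 15%; inconclusive = exactly half above 15%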;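 also: 0% = DMSO wells and 100% = Ran loaded with GDP instead of GTP; wells of about 40 µL received 100 nL stock; the first replicate is given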
# Calb FLC: affects C. albicans growth with fluconazole. C. albicans CaCi-2 (fluconazole-resistant clinical isolate) + fluconazole, Alamar Blue growth, 48 h. growth inhibition, % (no concentration beside the values). 300,000 tested, 0.57% active;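 active = most replicates above 75%; inconclusive = exactly half above 75%; inactive = most below 75%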;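 also: all wells also contain fluconazole at 8 µg/ml as a sub-toxic cotreatment; 0% = median of DMSO wells and 100% = median of geldanamycin control wells; wells of about 8 µL received 7.5 nL stock; the first replicate is given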
# Ecoli rRNA inh OD600: second read-out of Ecoli rRNA inh, no call of its own (marks repeat the call); OD600 change, %; measured here: OD600 growth;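 optical density of the mix in the first replicate; 0 = DMSO median and -100 = no signal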
# Ecoli rRNA inh RFP: second read-out of Ecoli rRNA inh, no call of its own (marks repeat the call); RFP signal change, %; measured here: RFP humanized mutant strains;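 first replicate; 0 = DMSO median and -100 = no signal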
# Active calls of the source: *; i = inactive; ? = inconclusive; nt = no result given; & = joins results of further samples.
# The first two records as a preview:
SMILES,AF4-AF9 inh,FGF22 binding,T cruzi inh,Ecoli rRNA inh,Ecoli rRNA inh OD600,Ecoli rRNA inh RFP,ALR H2O2 inh,Beta cell apopt,RanGTP-Impb inh,Calb FLC
c1csc(-c2ccc3ccccc3n2)c1,nt,nt,-11,nt,nt,nt,-23,1,0.2,-5
Cc1cccc(-n2nnnc2SCC(=O)c2cc(C)n(CC3CCCO3)c2C)c1 (stereo not drawn),nt,nt,14,nt,nt,nt,1,-5,?,18

# All compounds of this part, from the start:
SMILES,AF4-AF9 inh,FGF22 binding,T cruzi inh,Ecoli rRNA inh,Ecoli rRNA inh OD600,Ecoli rRNA inh RFP,ALR H2O2 inh,Beta cell apopt,RanGTP-Impb inh,Calb FLC
c1csc(-c2ccc3ccccc3n2)c1,nt,nt,-11,nt,nt,nt,-23,1,0.2,-5
Cc1cccc(-n2nnnc2SCC(=O)c2cc(C)n(CC3CCCO3)c2C)c1 (stereo not drawn),nt,nt,14,nt,nt,nt,1,-5,?,18
O=C(N=C1SC2CS(=O)(=O)CC2N1c1c(Cl)cccc1Cl)C1CC1 (stereo not drawn),-3.2,i,-24,-2,-3,0.8,-1,-8,1.9,2
COc1ccc(S(=O)(=O)N(C)C[C@H]2Oc3ccc(NC(=O)C4CCCCC4)cc3C(=O)N([C@H](C)CO)C[C@@H]2C)cc1,-3.8&-0.3,i,nt,-1&-8,-8&-6,-1.9&8.6,7,-3,nt,nt
CN(CC(=O)Nc1ccc(Cl)cc1)C(=O)C1=COCCO1,-0.4,nt,-4,16,6,-1.4,11,0,4.7,-3
CC(=O)O[C@@H]1[C@H]2[C@@H](C[C@@H](C)[C@@H]3CCC(=O)[C@@]13C)OC(=O)[C@@H]2C,3.5,i,-1,17,6,-5.7,1,-10,0.1,11
CC(=O)Nc1ccc(S(=O)(=O)NCc2cn3ccsc3n2)cc1,nt,nt,-5,14,14,1.2,-12,1,2.7,-8
CCOCCc1c(O)nc(SCC(=O)N2CCOCC2)[nH]c1=O,-0.2,i,1,6,6,-2.9,85*,nt,4.3,0
Cc1ccc(NC(=O)COc2coc(CN3c4ccccc4CC3C)cc2=O)c(C)c1 (stereo not drawn),1.8,i,2,-12,-29,-2.5,69,9,2.0,-2
O=C(COC(=O)CCc1c[nH]c2ccccc12)Nc1cc([N+](=O)[O-])ccc1Cl,8.2,i,6,-6,2,-1.5,-9,1,0.0,0
O=C(Cn1nc(-c2ccc(F)cc2)ccc1=O)Nc1ccc2c(c1)OCCO2,-2.7,i,-6,-11,-6,-5.8,-4,-4,6.7,-1
CCn1c(=O)c2ccccc2n(Cc2cccc(C)c2)c1=O,-0.7,i,9,-25,-28,-5.7,4,1,-0.4,-3
O=c1[nH]c(NCc2ccccc2)nc2c1CCC2,nt,nt,-17,nt,nt,nt,-8,-5,3.4,-13
COc1cccc(OCC(O)CNC(=O)c2oc3ccc(C)cc3c2C)c1 (stereo not drawn),-0.6,i,-4,-15,-8,4.1,-1,nt,1.6,-4
Cc1ccc(S(=O)(=O)C(CCC(=O)N2CCOCC2)S(=O)(=O)c2ccc(C)cc2)cc1,nt,nt,-3,nt,nt,nt,-1,-8,-2.2,?

# Next section; it opens with the two that closed the last part.
SMILES,AF4-AF9 inh,FGF22 binding,T cruzi inh,Ecoli rRNA inh,Ecoli rRNA inh OD600,Ecoli rRNA inh RFP,ALR H2O2 inh,Beta cell apopt,RanGTP-Impb inh,Calb FLC
COc1cccc(OCC(O)CNC(=O)c2oc3ccc(C)cc3c2C)c1 (stereo not drawn),-0.6,i,-4,-15,-8,4.1,-1,nt,1.6,-4
Cc1ccc(S(=O)(=O)C(CCC(=O)N2CCOCC2)S(=O)(=O)c2ccc(C)cc2)cc1,nt,nt,-3,nt,nt,nt,-1,-8,-2.2,?
Nc1[nH]ncc1C(=O)Nc1cccc(C(F)(F)F)c1,nt,nt,-9,nt,nt,nt,-5,-3,1.7,65
Cc1ccc(NCN2C(=O)c3ccccc3C2=O)c(C)c1,nt,nt,1,nt,nt,nt,-3,7,0.5,-1
O=C(C1Cc2ccccc2CN1S(=O)(=O)c1ccccc1[N+](=O)[O-])N1CCOCC1 (stereo not drawn),-1.2,i,nt,-3,20,5.3,-9,2,nt,nt
O=C(NNC(=O)c1cc2cc3ccccc3nc2s1)c1cccc(C(F)(F)F)c1,nt,nt,7,nt,nt,nt,-2,0,0.1,-9
C=CCNc1nc(C(=O)OCC(=O)Nc2ccccc2C(F)(F)F)cs1,0.9,i,nt,6,13,-2.2,-3,1,nt,nt
CCOC(=O)c1c(NC(=O)CSc2nnc(C)c(=O)[nH]2)sc(C)c1-c1ccc(C)cc1,0.5,i,3,-11,-12,-3.4,4,-7,-4.3,1
CC1(c2ccc(OC(F)F)cc2)NC(=O)N(CC(=O)Nc2cccnc2Cl)C1=O (stereo not drawn),-7.6,i,-10,-1,9,-3.6,-2,0,0.5,0
COc1ccc(N(CCC(=O)O)S(=O)(=O)c2ccc(C)cc2C)cc1,1.4,i,-1,-17*,-5.7*,3.9*,0,0,-3.1,16
COc1cc(OC)cc(-c2cc(N3C(=O)Nc4ccccc4N3O)n[nH]2)c1,nt,nt,-6,nt,nt,nt,54,-2,-1.1,12
COC(=O)CSc1ccc(-c2nc3ccc(C)cc3[nH]2)cn1,nt,nt,-16,nt,nt,nt,?,1,-1.0,-18
Cc1noc(C)c1NC(=O)N(C)C[C@H]1Oc2ccc(NC(=O)C3CCCCC3)cc2C(=O)N([C@H](C)CO)C[C@@H]1C,-2.8&-2.0,i,nt,6&10,5&-5,0.2&5.6,3,-9,nt,nt
Cc1ccccc1NC(=O)C(C)OC(=O)C1CC(=O)N(Cc2ccco2)C1 (stereo not drawn),-1.7,i,nt,16,13,-1.2,-5,-5,nt,nt
Cc1ccnc(NC(=O)CCC(=O)N(CC(=O)NCCc2ccccc2)c2ccccc2F)c1,3.1,i,5,-1,-6,2.6,-7,-10,-4.8,-1
CCc1cccc(C)c1NC(=S)NCc1ccc2[nH]c(C)cc2c1,-8.0,i,24,8,12,-7.6,-6,-2,0.5,-3
COc1ccc(C(=O)Oc2ccc3c(c2)OCO3)cc1OC,nt,nt,-2,nt,nt,nt,0,-2,?,15
CC(Oc1cc2oc(=O)c3c(c2cc1Cl)CCC3)C(=O)NCC1CCC(C(=O)O)CC1 (stereo not drawn),-0.2,i,-11,2,4,-2.9,39,2,-0.1,-5
CCCCN(C(=O)C(CCSC)N1C(=O)c2ccccc2C1=O)c1c(N)n(CCC)c(=O)[nH]c1=O (stereo not drawn),0.0,i,nt,11,10,0.4,nt,-8,nt,nt
COc1cccc(N2CCN(C(=O)c3ccc(CS(=O)c4ccc(C)cc4)o3)CC2)c1 (stereo not drawn),2.2,i,-16,-4,-18,-3.6,48,16,6.8,-6
Cc1csc(CNc2ncnc3ccc(-c4ccccc4Cl)cc23)c1,-0.5,i,nt,-9,-15,-4.8,-2,1,nt,nt
CCCCCSc1ncccc1C(=O)O,-4.4,i,-11,17,11,4.5,6,-4,?,0
CCc1ccc(C(=O)NNC(=O)C2CCN(c3ncnc4sc(C)c(C)c34)CC2)cc1,0.4,i,24,-33,-39,-2.4,8,nt,-1.3,33
CC(C)N(C#N)c1nc(N2CCOCC2)nc(N2CCOCC2)n1,nt,nt,11,nt,nt,nt,1,-3,3.5,-9
COc1cccc(CCc2nnc(CCC(=O)N3CCN(Cc4ccccn4)CC3)o2)c1,2.2,i,-3,5,1,7.3,-18,0,-2.9,-7
CN(C)S(=O)(=O)c1ccc(NC(=O)c2c(F)cccc2Cl)cc1,nt,nt,-6,nt,nt,nt,-2,4,-3.0,6
Nc1nc2ccccc2n1/N=C/c1cccnc1,nt,nt,8,nt,nt,nt,-3,-11,2.6,-4
CSCCC(NC(=O)COc1ccccc1)C(=O)N1CCCC(C)C1 (stereo not drawn),0.2,i,11,0,15,4.7,-4,-13,-0.7,-2
O=C(NN1C(=O)c2cc(Br)ccc2NC1c1ccccc1Cl)c1ccncc1 (stereo not drawn),-2.9,i,-1,0,-13,-3.7,2,4,-2.0,-2
Cc1ccc(C(=O)NC(=S)Nc2ccccc2N2CCOCC2)cc1C,nt,nt,19,nt,nt,nt,2,8,-0.8,-2
CC(C)CN(C)C(=O)CC1C(=O)NCCN1C (stereo not drawn),nt,nt,-3,nt,nt,nt,-6,-1,-0.7,-3
CC1CN(C(=O)CCC(=O)N2CCOCC2)c2ccccc2O1 (stereo not drawn),-3.9,i,-1,5,2,-13,-1,-6,-1.8,-24
S=C(NCCN1CCOCC1)NC1CCCCC1,0.1,i,-7,nt,nt,nt,-4,1,4.9,4
COc1cccc(-c2nn(-c3ccccc3)cc2C(=O)O)c1,nt,nt,-5,nt,nt,nt,-2,-5,3.1,11
CCN(C#N)c1nc(NC(C)C)nc(NC(C)(C)C)n1,-2.2,i,14,-1,2,-0.3,23,1,-3.4,21
Cn1c(=O)c2c3c(sc2n2c(SCc4ccccc4)nnc12)CCCC3,nt,nt,47,nt,nt,nt,-4,3,0.6,-2
O=C(O)c1cc(NS(=O)(=O)c2ccc3ccccc3c2)ccc1O,-2.1,nt,-17,-2,-2,-1.5,48,-11,-4.7,3
COc1ccc(-c2ccnc3nc(-n4cccc4)nn23)cc1,nt,nt,12,nt,nt,nt,10,6,5.0,32
CCCN(CC(=O)Nc1ccccc1OC)C(=O)c1ccc(S(=O)(=O)NCc2ccco2)cc1,2.1,i,nt,nt,nt,nt,1,-2,nt,nt
CCOC(=O)C1CCCN(C(=O)c2ccccc2Oc2ccccc2)C1 (stereo not drawn),nt,nt,8,nt,nt,nt,-39,-7,1.2,16
COc1ccc(-c2cn3cc(Br)cnc3n2)cc1,-2.5,i,8,16,21,1.8,-8,-3,?,-1
O=C(COc1ccccc1)N1CCN(C(=O)COc2ccccc2)CC1,nt,nt,8,3,3,4.0,-19,-6,?,-4
Cc1ccc(CNC(=O)c2cc3c(=O)n4ccccc4nc3n(Cc3ccco3)c2=N)cc1,nt,nt,31,73,-1,10,24,2,78*,-1
Cc1cc(N2CCOCC2)nc2ccccc12,nt,nt,2,4,13,-0.2,2,-3,-0.2,5
CC(Oc1ccc(F)cc1)C(=O)N(CCC1=CCCCC1)c1c(N)n(Cc2ccccc2)c(=O)[nH]c1=O (stereo not drawn),0.5,i,12,0,1,-0.4,0,18,4.4,35
O=C(NCc1ccc(F)cc1)c1ccncc1,-4.8,i,-2,-1,0,1.9,7,-8,2.6,-4
CC1CCCC(C)N1S(=O)(=O)c1ccc(NC(=O)CCn2cnc3ccccc3c2=O)cc1 (stereo not drawn),nt,nt,13,nt,nt,nt,-9,5,-1.1,5

# The list is partial, so the mix of outcomes need not match the whole.
